HNF4A DNA FP = change in binding of human HNF4 alpha to DNA | activity change, % at 10 µM | HNF4a-FITC DNA binding, fluorescence polarization, 1 h | AID 1224865 | P41235 | 0.3% of 360,000 active; in the data active = activity change above about 30%, passing the limit was not always enough;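 note: controls were the assay level and a saturating level of protein; the project sought stronger binding though the title names inhibitors; some compounds called inactive have numbers as strong as hits; positive values seem to mean higher polarization but the record does not say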
Target sequence (P41235 whole entry, looked up): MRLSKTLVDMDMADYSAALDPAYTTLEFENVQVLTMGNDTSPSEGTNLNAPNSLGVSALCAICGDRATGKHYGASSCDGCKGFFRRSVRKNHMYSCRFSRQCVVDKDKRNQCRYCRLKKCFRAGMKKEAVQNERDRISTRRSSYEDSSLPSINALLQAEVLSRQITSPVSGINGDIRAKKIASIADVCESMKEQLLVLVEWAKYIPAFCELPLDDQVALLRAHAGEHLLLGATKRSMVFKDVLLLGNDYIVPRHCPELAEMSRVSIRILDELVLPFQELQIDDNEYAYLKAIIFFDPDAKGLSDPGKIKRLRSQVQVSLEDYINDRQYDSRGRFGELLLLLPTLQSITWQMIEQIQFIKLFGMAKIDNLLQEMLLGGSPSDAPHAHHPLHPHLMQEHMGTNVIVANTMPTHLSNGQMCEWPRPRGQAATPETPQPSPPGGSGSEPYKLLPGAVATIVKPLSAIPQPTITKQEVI
B2AR ag = activates human beta-2 adrenergic receptor causing internalization | P07550 | Am2.2-beta2AR cells, FAP receptor internalization, flow cytometry; reference of the scale not given here | response, % (no concentration beside the values) | 0.43% of 340,000 active | AID 504454;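 active = response above a set limit, near 3 SD of response in nonfluorescent compounds, cut at about 42% in these data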;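 note: stock transfer was 100 nL into about 11 µL; a reference agonist was the positive control; negative values mostly stem from fluorescent compounds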
A1 inh = inhibitors of the anti-apoptotic protein A1, read as caspase activation | MEF A1-2A-BIM cells, Caspase-Glo 3/7 luminescence, 3 h; percent of clofoctol response, vehicle zero | caspase activation, % (test concentration not listed) | 0.066% of 330,000 active;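 active = over half of replicate activation scores above 10%, or exactly half above 10 with the replicate mean above 10; inconclusive = replicate mean below 10 yet half the replicates above 10; inactive = over half of replicates below 10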;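 note: wells of about 30 µL received 50 nL stock; many hits fall short of the cut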
LANA-H2B inh = blocks KSHV LANA binding to histone H2A/H2B | AID 2629 | inhibition, % (test concentration not listed) | 0.6% of 320,000 active | cell-free LANA-H2A/H2B peptide, fluorescence polarization; in the data active = inhibition mostly above about 10%, no sharp cut-off; inactive = mostly below about 6.7%;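 note: stock transfer was 7.5 nL into about 10 µL; 0% = median of vehicle wells and 100% = median of positive control wells; one replicate is shown; the record names a cut of 25% in any replicate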
Vif TR-FRET = HIV-1 Vif–A3G interaction blockers – biochemical, TR-FRET, GST-Vif 1-94, biotin-A3G peptide, dose response retest, primary screen (AID 1117319); 0.57% of 260,000 active; inhibition, %, or IC50 in µM where a hit was titrated; TR-FRET GST-Vif / biotin-A3G peptide binding; higher % means a stronger effect; test concentration not given here; strong numbers were not always called active;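 active = above the screen mean plus three standard deviations and confirmed in dose response; inconclusive = results disagree or hit not tested in dose response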;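 note: Vif residues 1-94 fused to GST binding biotinylated APOBEC3G peptide 110-148; 0% = full assay without inhibitor and 100% = GST in place of GST-Vif; retest series ran down from 100 µM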
E coli growth = inhibitors of Escherichia coli growth. OD600 absorbance (concentration not given with the values). 0.21% of 330,000 active. OD600, 23 h; hits give low values;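 active = OD600 absorbance below the run mean of sample wells minus 3.6 SD, in any replicate, cut at about 0.56 in these data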;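 note: stock transfer was 300 nL into about 60 µL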
UCH37 DUB inh = inhibitors of human deubiquitinating enzyme UCH37 | Q9Y5K5 | purified proteasome/UCH37, Ub-AMC cleavage fluorescence | inhibition, % (test concentration not listed) | 0.33% of 330,000 active;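 active = mean of two replicates above 20%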;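 note: 0% = compound-free wells with enzyme and 100% = wells lacking proteasome; stock transfer was 100 nL into about 20 µL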
Target sequence (Q9Y5K5 whole entry, looked up): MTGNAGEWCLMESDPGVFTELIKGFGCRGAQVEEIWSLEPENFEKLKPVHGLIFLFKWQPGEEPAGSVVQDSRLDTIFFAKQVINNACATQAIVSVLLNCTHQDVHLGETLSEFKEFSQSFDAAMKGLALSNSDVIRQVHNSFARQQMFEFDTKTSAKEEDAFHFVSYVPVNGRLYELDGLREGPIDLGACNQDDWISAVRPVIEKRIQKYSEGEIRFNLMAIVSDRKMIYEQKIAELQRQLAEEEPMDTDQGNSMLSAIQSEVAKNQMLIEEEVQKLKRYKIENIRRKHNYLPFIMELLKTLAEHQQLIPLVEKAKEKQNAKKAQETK
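System: Proteasome-associated human UCH37 deubiquitinase; Input: 0.15 nM proteasome in added enzyme buffer; Also added: Ub-AMC substrate from 1 µM stock; Incubation: 30 min compound-proteasome preincubation then 25 min substrate reaction, room temperature; Detection: fluorescence, ex 355 nm, em 460 nm; Read-out: % inhibition of Ub-AMC cleavage fluorescence; Benchmarks: no-proteasome and no-compound wells.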
* hit, by the source's call; i = inactive; u = inconclusive; x = no result given; & = joins results of further samples.

mol,HNF4A DNA FP,B2AR ag,A1 inh,LANA-H2B inh,Vif TR-FRET,E coli growth,UCH37 DUB inh
COC(=O)c1cccc(NC(=O)CSc2nc(O)c(-c3ccccc3)c(=O)[nH]2)c1,-4.0,4.3,-0.3,-1.6,30.9%,0.664,15.2
CC(=O)c1c(C)[nH]c(C(=O)OCC(=O)N2CCCC2=O)c1C,0.6,-3.3,0.0,i,-3.6%,0.642,3.2
O=C(CCn1cccc1)Nc1ccc(OC(F)(F)F)cc1,2.0,-9.6,-0.1,-6.6,2.0%,0.664,2.6
O=C(CCCC(=O)N(CC(=O)NC1CCCC1)Cc1ccccc1)Nc1ccccn1,3.2,-7.7,-0.6,-0.6,-2.8%,0.673,3.9
Oc1ccc2ccccc2c1C=Nc1ccccc1,5.6,16.4,0.2,-4.6,-1.1%&2.4%,0.654,2.4
O=C(COC(=O)C1Cc2ccccc2CN1C(=O)c1ccccc1Cl)Nc1ccc(N2CCOCC2)cc1 (stereo not drawn),-1.2,1.5,0.9,0.5,16.8%,0.63,2.2
CCOc1cc2c(C)cc(=O)oc2cc1Cl,5.3,1.5,0.4,3.0,1.0%,0.74,-11.7
Cc1oc2c(C)c3oc(=O)c(CCC(=O)N4CCC(C(=O)NCCC(=O)O)(c5ccccc5)CC4)c(C)c3cc2c1C,0.5,-2.0,0.0,-0.6,1.0%,0.646,-75.3
C=CCNC(=S)N1CCN(CCN=CC2=C(O)CC(c3ccc(Cl)cc3)CC2=O)CC1 (stereo not drawn),-1.2,14.7,0.0,2.6,25.3%,0.715,3.5
COc1ccccc1N1CCN(C(=O)/C=C/c2ccc3c(c2)OCO3)CC1,3.9,-4.5,-0.7,2.0,11.4%,0.683,-0.8
COc1ccc2[nH]cc(CCNS(=O)(=O)c3ccc(F)cc3)c2c1,1.3,3.8,-0.9,-1.7,7.8%,0.641,-0.4
CCN1CCN(c2oc(-c3ccccc3)nc2S(=O)(=O)c2ccc(C)cc2)CC1,-1.0,-0.9,x,x,1.6%,0.703,-0.2
COc1ccc(-c2nn(-c3ccccc3)cc2C(=O)NC(=S)NNC(=O)c2ccncc2)cc1,2.8,11.0,0.0,1.5,x,0.709,1.8
Cc1cc(C)n(-c2nc(SCC(=O)Nc3nccs3)c3c4c(sc3n2)COC(C)(C)C4)n1,-1.6,92.8*,0.1,5.6,5.8%,0.784,1.4
C=CCNC(=S)Nc1ccccc1-c1nnc2n1CCCCC2,1.9,-1.9,0.3,2.1,x,0.683,1.5
CC(C)=NN1C(=O)c2ccccc2NC1(C)C,-1.6,-0.5,-0.1,3.4,5.3%,0.643,-492.0
CCN(CC)CCCNC(=O)c1cc2c(-c3cccc(OC)c3)nn(C)c2s1,2.9,5.7,0.7,-2.3,x,x,x
COc1cccc(NC(=O)Cc2nnc(SCC(=O)NC3=NCCS3)n2C)c1,2.4,-5.5,-0.7,-1.4,x,0.641,3.0
CN(C)c1ccc2nc3c(=O)[nH]c(=O)nc-3n(CC(O)C(O)C(O)CO)c2c1 (stereo not drawn),18.8,-1.2,-0.2,30.4*,x,0.683,10.9
COc1cc(/C=C/C(=O)O)cc(OC)c1,-2.7,11.5,0.2,-1.3,x,x,-1.6
O=C(NCc1cccs1)c1cc2c(s1)CCCC2,0.5,-6.7,-3.3,0.6,1.7%,0.679,1.4
Cc1ccnc(NC(=O)c2cccc(S(=O)(=O)N3CCN(c4ccccc4)CC3)c2)c1,4.6,-2.9,-1.7,0.2,-0.9%,0.646,0.7
Cc1ccc(C(=O)N/C(=C\c2ccc(C)o2)C(=O)O)cc1,-7.5,0.1,0.3,4.9,u,0.721,5.6
COc1ccc(-n2nnnc2SCC(=O)Nc2ccc(OC)cc2OC)cc1,4.0,-2.9,0.1,-2.4,x,0.718,2.1
CC(C)NC(=O)COc1coc(CN2CCN(c3cccc(Cl)c3)CC2)cc1=O,0.6,0.6,0.2,-0.9,x,0.671,-1.0
O=[N+]([O-])c1cc([N+](=O)[O-])c(Oc2cncc(Cl)c2)cc1NN1CCCCC1,12.7,-2.9,-0.9,-2.0,x,0.726,2.8
O=C(C1CCN(S(=O)(=O)N2CCOCC2)CC1)N1CCOCC1,-3.0,4.5,1.2,0.3,-0.8%,0.659,5.6
CSc1ccc(S(=O)(=O)N2CCC(C(=O)N3CCOCC3)CC2)cc1,-1.5,4.0,0.4,-0.7,x,0.694,3.8
COc1ccc(C(=O)COC(=O)CN2C(=O)C3C4C=CC(C5CC45)C3C2=O)cc1 (stereo not drawn),-4.2,3.9,-0.3,-1.7,27.8%,0.677,3.1
Cc1cccn2cc(-c3ccc(NC(=O)Cc4ccccc4)cc3)nc12,40.1*,-10.3,-1.7,-12.7,-19.4%,0.676,-8.9
COc1ccc(CNC(=O)CSc2nnnn2C)cc1OC,3.1,-6.2,2.6,0.0,-0.9%,0.621,2.2
Cc1cc(C(=O)N2CCN(CCc3ccccc3)CC2)no1,-0.4,14.9,1.2,-2.3,66.5%,0.69,0.0
O=C(CCc1ccccc1)N1CCCC1,3.2,-8.6,-0.4,3.6,x,0.675,6.3
COc1ccc(NC(=O)c2cc3ccccc3oc2=O)c(OC)c1,2.8,7.2,-0.5,3.0,x,0.737,5.2
O=C(CN1C(=O)c2ccc([N+](=O)[O-])cc2C1=O)Nc1ccccc1N1CCCC1,0.7,-5.8,0.6,1.5,8.6%,0.618,-0.1
O=C(NC1=NCCS1)c1cccc(S(=O)(=O)N2CCOCC2)c1,-4.7,5.1,-0.4,-8.5,-3.1%,0.683,0.2
CCn1nc(C(=O)Nc2nc3ccccc3[nH]2)c2ccccc2c1=O,1.1,-10.2,0.0,-1.8,-4.3%,0.704,6.5
CC(Cc1ccccc1)C(=O)NCc1ccccn1 (stereo not drawn),1.0,-1.9,0.0,4.2,8.3%,0.69,0.4
O=C(COC(=O)c1ccc(Br)o1)NCCNC(=O)COC(=O)c1ccc(Br)o1,2.2,2.3,0.9,1.0,-1.3%,0.674,0.7
CC(CCC(=O)O)C1CCC2C3CCC4C[C@H](O)CCC4(C)C3CC(=O)C12C (stereo partly drawn),-0.1,12.2,1.2,0.4,10.4%,0.681,3.6
CCSc1ccccc1C(=O)Nc1ccc([N+](=O)[O-])cc1OC,2.9,-3.1,0.2,-2.0,-4.6%,0.675,6.8
Cc1ccc(COc2ccccc2C(=S)N2CCCC2)cc1,1.0,-5.5,0.6,-4.2,x,0.709,-1.8
Cc1ccc(NC(=O)c2c(C)nn(-c3ccccc3)c2Cl)cc1,-1.9,2.8,0.0,3.3,x,0.703,-1.2
CCSC1=NCCN1S(=O)(=O)c1ccc(Cl)cc1,0.5,-2.1,0.0,-2.2,-0.5%,0.696,6.1
CCc1ccc(CN2CC(C(=O)O)CC2=O)cc1 (stereo not drawn),-2.3,0.7,0.2,-0.1,-3.5%,0.733,1.8
COC(=O)C1CCN(C(=O)CSc2nc3ccc(OC)cc3[nH]2)CC1,-0.4,21.9,-0.1,-2.2,14.8%,0.727,2.7
CCOC(=O)C1=CN2CCCC[C@@H]2CC1=O,-1.9,5.6,0.7,2.1,x,x,1.3
O=C1COc2ccc(C(=O)COC(=O)c3ncc(Cl)c(Cl)c3Cl)cc2N1,-0.4,2.2,-0.4,1.1,-3.5%,0.634,3.7
CC(Oc1ccc(F)cc1)C(O)CCN(C)C (stereo not drawn),-0.9,-1.1,0.6,-12.2,8.1%,0.686,-2.8
CC1CCCCC1NC(=O)CN1CCC(NC(=O)c2ccc([N+](=O)[O-])cc2)CC1 (stereo not drawn),1.1,3.3,-0.1,-2.2,x,0.699,2.3
Cc1nc(-n2nnc3cc(C)c(C)cc32)c2c3c(sc2n1)CCCC3,-0.9,4.7,-0.4,-0.9,19.3%,0.752,-6.5
COc1cc(/C=C/C(=O)N2CCc3ccccc3C2)cc(OC)c1OC,1.2,-7.3,-0.3,5.2,x,0.704,-4.9
CCOC(=O)CSC1=C(C#N)C(c2ccc(Cl)cc2)C(C(=O)OC)C(=O)N1 (stereo not drawn),1.1,10.6,0.2,1.8,2.4%,0.644,2.0
O=C(OCC(=O)N1CCN(c2ccccc2)CC1)c1nc(Cl)ccc1Cl,3.2,-2.7,1.0,-2.9,-1.9%,0.696,-0.7
CCOC(=O)C1=C(C)N=C(/N=C/N(C)C)SC1c1ccccc1 (stereo not drawn),2.8,-6.1,-0.4,-2.3,18.8%,x,x
NS(=O)(=O)c1ccc(CNS(=O)(=O)c2ccc3ccccc3c2)cc1,1.8,-10.9,-0.1,-6.9,x,0.679,3.8
Cc1ccc(NC(=O)COC(=O)c2c[nH]c3ccccc23)cc1C,-4.7,-6.4,2.4,-0.6,-13.2%,0.739,-1.7
Cc1c(-c2ccccc2)nc(N)c(C#N)c1-c1cccs1,-0.6,-4.0,1.6,-2.2,6.5%,0.748,-48.0
Cc1ccc(N2C(=O)[C@@H]3C(c4ccc(F)cc4)=NO[C@@H]3C2=O)cc1,9.4,-5.7,-1.4,3.9,-1.0%,0.764,6.8
COc1ccc(C(=O)Nc2ccc(F)cc2F)cc1,-2.9,2.3,-5.8,2.3,-0.9%,0.627,0.8

(more compounds)
mol,HNF4A DNA FP,B2AR ag,A1 inh,LANA-H2B inh,Vif TR-FRET,E coli growth,UCH37 DUB inh
CS(=O)(=O)N1CCCC(C(=O)NCc2ccccc2Cl)C1 (stereo not drawn),1.6,-0.4,1.1,-1.0,-0.4%,0.676,1.0
CC(=O)N1CCN(Cc2nc3cc(NS(C)(=O)=O)ccc3n2C)CC1,-4.5,1.9,0.7,-3.6,10.0%,0.683,-1.4
CCN1CCN(C(=O)CCNC(=O)Cn2cnc3ccccc3c2=O)CC1,-0.5,4.4,-0.5,-1.0,x,0.675,-1.4
Cc1ccc(OCC(=O)N2CCc3ccccc3C2)c([N+](=O)[O-])n1,-0.8,-11.4,0.2,8.9,x,0.634,1.2
O=C(Nc1nnc(-c2ccccc2F)s1)c1ccccc1F,-4.5,-2.8,-1.2,-1.5,-55.3%,0.668,2.3
CC(=O)NC(CC(=O)O)c1ccccc1 (stereo not drawn),4.0,-12.3,-0.1,15.5,-8.1%,0.685,0.1
Cc1nn(CCC(N)=O)c2nc(-c3cccs3)cc(C(F)(F)F)c12,-0.8,-144.4,-0.1,1.8,9.0%,0.707,-331.1
CCCCCn1c(=O)c2ccccc2n2c(CCl)nnc12,1.9,-20.0,0.1,-0.1,8.3%,0.679,4.2
CCOc1ccc(S(=O)(=O)N/N=C2/CCCC(=O)C2)cc1,-2.0,-4.7,0.7,-0.9,1.3%,x,x
Cc1ccc(C)c(NC(=S)NNC(=O)c2ccc(Br)o2)c1,-0.3,5.2,-2.9,-0.1,-1.2%,0.669,1.6
CC(=O)c1c(C)nc(-c2ccccc2)nc1N,-0.7,0.9,0.7,1.1,-6.5%,0.677,5.1
CCN(CC)C(=O)CSC1=C(C#N)C(c2cccs2)C=C(C)N1 (stereo not drawn),-5.9,2.6,0.7,-4.0,0.4%,0.712,1.2
Cc1cc(C)c(NC(=O)CN2CCN3CCCC3C2)c(C)c1 (stereo not drawn),0.8&2.4,-0.1&3.8,1.4,2.7,1.6%&-1.6%,0.692,1.9
CC(=O)OC(C(=O)NC1CCCCC1)c1ccc(Cl)c(Cl)c1 (stereo not drawn),-1.8,-2.0,1.4,1.1,11.2%,0.644,1.4
Cn1c2c(c(=O)n(C)c1=O)C(CC(=O)Nc1ccc(F)cc1)C(=O)N2 (stereo not drawn),-3.5,-4.3,0.3,-2.7,-4.3%,0.691,0.3
